HSV replic up: increases HSV replication in cells. HSV replication augmentation in cells, fold increase. maximum fold increase. 220,000 compounds, 0.005% hits. AID 1956;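 active = peak rise of 1.5-fold or more in the series; inconclusive = self-fluorescent or not available for retest; tested in PC3 cells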;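 also: first round at 10 µM; read as green reporter fluorescence; hits show the peak of a series up to 25 µM; 1 = signal of infected wells without compound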
PKD1 inh: inhibitors of human PKD1 kinase | Q15139 | PKD1 kinase fluorescence polarization assay | inhibition, %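 (about 10 µM by stock and volumes)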 | 200,000 compounds, 0.056% hits | AID 797;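 active = inhibition of 50% or more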;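 also: controls were vehicle for no effect and a reference inhibitor for full effect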
Target sequence (Q15139 whole entry, looked up): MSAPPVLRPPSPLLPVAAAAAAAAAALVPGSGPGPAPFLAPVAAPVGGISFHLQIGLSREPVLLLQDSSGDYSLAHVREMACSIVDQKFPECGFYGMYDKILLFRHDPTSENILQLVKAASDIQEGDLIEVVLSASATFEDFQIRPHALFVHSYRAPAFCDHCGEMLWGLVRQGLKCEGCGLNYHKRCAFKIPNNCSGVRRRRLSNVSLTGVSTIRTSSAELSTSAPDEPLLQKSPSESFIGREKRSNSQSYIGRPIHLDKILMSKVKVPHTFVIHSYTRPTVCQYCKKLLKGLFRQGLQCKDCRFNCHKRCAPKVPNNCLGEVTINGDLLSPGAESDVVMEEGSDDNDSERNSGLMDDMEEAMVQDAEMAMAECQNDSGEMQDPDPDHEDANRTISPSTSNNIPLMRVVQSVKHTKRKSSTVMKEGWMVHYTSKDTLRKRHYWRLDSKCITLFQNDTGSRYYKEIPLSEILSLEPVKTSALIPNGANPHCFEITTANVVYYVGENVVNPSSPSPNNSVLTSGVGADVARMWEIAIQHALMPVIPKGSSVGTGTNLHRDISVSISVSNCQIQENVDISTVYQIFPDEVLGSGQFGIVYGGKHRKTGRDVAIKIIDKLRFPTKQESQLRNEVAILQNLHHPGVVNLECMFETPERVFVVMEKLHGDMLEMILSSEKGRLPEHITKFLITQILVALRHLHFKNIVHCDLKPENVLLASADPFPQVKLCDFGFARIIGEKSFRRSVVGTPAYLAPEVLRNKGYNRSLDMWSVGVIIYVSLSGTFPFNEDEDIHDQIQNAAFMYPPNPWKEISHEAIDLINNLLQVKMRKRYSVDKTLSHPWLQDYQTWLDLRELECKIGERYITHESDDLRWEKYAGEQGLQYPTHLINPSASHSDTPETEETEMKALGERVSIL
INS promoter inh: TRM-6 insulin promoter activity inhibition | TRM-6 cells (human fetal islet line), insulin promoter-eGFP reporter, imaging; reporter expression induced with tamoxifen | inhibition, % at 2 µM | 130,000 compounds, 0.9% hits;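 active = inhibition above the mean plus 3 SD, with well images judged a real hit on visual review, cut at about 60% in these data, passing the limit was not always enough; inconclusive = inhibition over the cutoff but images rejected on review; inactive = inhibition not above the cutoff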
RGS16-Gao: modulates binding between human RGS16 and Galphao; bead-based flow cytometry RGS16-Galphao binding, fluorescence; actives lie on both sides; binding response (% of control), % at 10 µM; 220,000 compounds, 0.38% hits;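 active = below 25% or above 175%, edge rows of some plates excepted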;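 also: Galphao activated by GDP with aluminum fluoride before binding; 100% = wells without compound and 0% = beads without RGS; some results beyond the cut were filed as inactive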
GALR2 agonist: agonists of human galanin receptor 2 (GALR2); GALR2-expressing cells, agonist activation read-out; 140,000 compounds, 0.48% hits; activation, %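 (tested at 5 µM)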; O43603;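 active = above mean plus 3 SD of all compounds, about 5% in these data, not always enough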;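 also: 0% = vehicle buffer wells and 100% = reference agonist at full effect; tested in CHO reporter cells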
INS promoter inh cell count: second read-out of INS promoter inh, no call of its own (marks repeat the call); normalized cell count, %; measured here: cell count, toxicity; reference of the scale not given here;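 cells exposed to compound for 48 h; stained nuclei by imaging scaled within each plate; lower means fewer cells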
HSV replic up primary fold: further read-out of HSV replic up, marked with its call; fold increase; compound at 10 µM; measured here: primary screen fold increase 10 uM; tested in PC3 cells;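 GFP signal in the first replicate; 1 = infected wells without compound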
Numbers without * were called inactive; i = inactive; ? = inconclusive; · = not tested or not shown.

Start of the listing, in advance (three entries):
#	SMILES	HSV replic up	HSV replic up primary fold	PKD1 inh	INS promoter inh	INS promoter inh cell count	RGS16-Gao	GALR2 agonist
1	COCCNC(=O)c1cc(S(=O)(=O)N2CCOCC2)ccc1SCc1cccc(OC)c1OC	i	1	2	·	·	96	·
2	CCOC(=O)CC1(c2ccccc2)CCOC(C)(C)C1 (stereo not given)	i	1	-1	-3	168	100	-1.3
3	CCOC(=O)C(C)Oc1cccc2c(=O)n(CC(=O)Nc3ccc4c(c3)OCCO4)ccc12 (stereo not given)	i	0.79	-10	·	·	86	-3.2

All compounds of this part, from the start:
#	SMILES	HSV replic up	HSV replic up primary fold	PKD1 inh	INS promoter inh	INS promoter inh cell count	RGS16-Gao	GALR2 agonist
1	COCCNC(=O)c1cc(S(=O)(=O)N2CCOCC2)ccc1SCc1cccc(OC)c1OC	i	1	2	·	·	96	·
2	CCOC(=O)CC1(c2ccccc2)CCOC(C)(C)C1 (stereo not given)	i	1	-1	-3	168	100	-1.3
3	CCOC(=O)C(C)Oc1cccc2c(=O)n(CC(=O)Nc3ccc4c(c3)OCCO4)ccc12 (stereo not given)	i	0.79	-10	·	·	86	-3.2
4	O=C(CSCc1ccccc1Cl)N1CCN(c2ccccn2)CC1	i	0.73	-1	-3	98	103	-1.0
5	CCOC(=O)Cn1nc(C)n(-c2ccc(F)cc2)c1=O	i	0.94	-1	·	·	100	·
6	Cc1cc2nc(C3CCN(CC4COc5ccccc5O4)CC3)[nH]c2cc1C (stereo not given)	i	1.3	-5	-13	109	100	-0.6
7	CCN(CC)c1ccc(NC(=O)c2ccc(Cl)nc2)cc1	i	0.83	-3	-53	71	108	-3.2
8	Cc1noc(-c2ccccc2)c1NC(=O)Nc1ccccc1	i	0.84	·	·	·	95	·
9	COc1ccc(C2c3[nH]c4ccccc4c3CCN2CCCn2cccn2)c(F)c1 (stereo not given)	i	1.1	·	·	·	101	·
10	Cc1ccc(OCC(=O)N2CCOCC2)cc1C	i	1	-7	·	·	111	-1.2
11	O=C(CN1C(=O)c2ccccc2C1=O)Nc1ccccc1C(=O)NC1CCCCCC1	i	1.1	-1	21	76	103	0.2
12	Cc1cccc(C(=O)NCC(c2ccc(F)cc2)N2CCOCC2)c1 (stereo not given)	i	0.98	3	·	·	99	·
13	CN(c1cnn(-c2ccccc2)c(=O)c1Cl)n1cccc1	i	1	·	·	·	104	·
14	Cc1nn(Cc2ccc(F)cc2)c(C)c1NC(=O)c1cnn2cccnc12	i	0.84	-9	40	108	104	-1.6
15	O=C(CSC(=S)N1CCCCC1)Nc1ncc2c(n1)CC(c1ccco1)CC2=O (stereo not given)	i	0.94	·	·	·	166	·
16	O=C(CCc1c[nH]c2ccccc12)N=Nc1c(O)[nH]c2ccccc12	i	0.9	0	-91	56	118	·
17	CCOC(=O)CSc1nnc(-c2ccccc2OC)o1	i	0.92	-8	3	135	101	-2.8
18	CC(=NC1CCCC1)c1c(C)[nH]n(-c2nc3ccccc3s2)c1=O	i	0.93	-5	-54	45	126	1.8
19	O=C(NCc1ccccc1Cl)C1CCCN(c2nc3ccsc3c(=O)s2)C1 (stereo not given)	i	0.9	3	·	·	104	·
20	Cc1nc2[nH]onc2c2nccc(=O)c12	i	1.1	-9	·	·	102	-2.0
21	CCN(CC)S(=O)(=O)c1ccc(C)c(NC(=O)CN2CCN(Cc3ccccc3)CC2)c1	i	1.1	·	·	·	102	·
22	Cc1ccnc(SCc2cn3c(C)cc(C)nc3n2)n1	i	0.96	-2	·	·	100	·
23	COCCCNC(=O)C1CC(=O)N(CCc2ccccc2)C1 (stereo not given)	i	1	7	-35	102	102	-3.5
24	Cc1cccc(S(=O)(=O)NCCC(=O)OCC(=O)Nc2ccc(C#N)cc2)c1	i	1	5	10	110	111	-0.9
25	COc1ccc(OC(C)C(=O)Nc2cccc(OC)c2)cc1 (stereo not given)	i	0.97	-3	8	116	104	0.1
26	Cn1c(N)c(C(=O)COC(=O)c2cc(C3CC3)nc3ccccc23)c(=O)n(C)c1=O	i	0.91	1	41	105	107	-0.6
27	Cc1ccc2nsnc2c1S(=O)(=O)NCc1ccc2c(c1)OCO2	i	0.77	-6	0	64	108	-0.5
28	COC(=O)c1cc(NC(=O)c2ccc(C)cc2)c(=O)oc1C	i	0.98	-2	·	·	101	·
29	CC(C)n1c(N2CCN(C(=O)NCc3ccccc3)CC2)nc2ccccc21	i	0.92	-9	·	·	110	-0.3
30	O=C(N/N=C1/CCc2ccccc21)C1CC1	i	0.95	4	33	148	104	·
31	CCOC(=O)N1CCN(C(=O)c2ccccc2-c2ccccc2)CC1	i	0.67	-2	-220	77	103	-0.6
32	Cc1ccc(-c2nc3ccsc3c(=O)o2)cc1	i	0.98	3	33	46	100	-1.5
33	CCCCC(C)n1[nH]c(=O)c2c(C)cc(C)nc21 (stereo not given)	i	0.85	·	·	·	96	·
34	Cc1c(C(=O)N2CCc3ccccc32)oc2ccccc12	i	1.2	-12	14	77	27	-1.2
35	O=C(CCCCl)OCc1cn(-c2ccc(Cl)cc2)nn1	i	0.87	-3	-26	133	102	·
36	O=C(C1CC(c2ccccc2O)=NO1)N1CCCC1 (stereo not given)	i	1	-1	-200	42	103	-2.6
37	CCN(CC)S(=O)(=O)c1cc(NC(=O)COC(=O)c2ccc(NC(=O)CC#N)cc2)ccc1C	i	0.96	2	-20	124	95	·
38	CCS(=O)(=O)N1CCC(C(=O)NCc2ccc(F)cc2Cl)CC1	i	0.96	-6	·	·	111	-1.0
39	CC(C)c1ccc(NC(=S)NNC(=O)c2cccs2)cc1	i	0.91	-3	-35	129	101	·
40	Fc1ccccc1COc1ccc(-c2nnn(Cc3ccccc3F)n2)cc1	i	1.1	2	·	·	101	-1.4
41	O=C(CCS(=O)(=O)c1ccccc1)Nc1ccccc1F	i	1.1	-8	·	·	101	·
42	Cc1ccc(C(=O)NN(CCC(=O)NC(C)(C)C)C2=NS(=O)(=O)c3ccccc32)cc1	i	1	-1	0	98	105	-0.1
43	CC12C=CC3(O1)C(C(=O)N1CCCOC13)C2C(=O)O (stereo not given)	i	1	1	·	·	125	·
44	CC(=O)N=C1SC2CS(=O)(=O)CC2N1c1ccccc1Cl (stereo not given)	i	0.95	14	·	·	103	-0.6
45	O=C(O)c1cccc(-c2ccc(/C=c3/sc4nc5ccccc5n4c3=O)o2)c1	i	1.1	·	·	·	102	·

Part of the list above in order of molar mass, rising:
#	SMILES	HSV replic up	HSV replic up primary fold	PKD1 inh	INS promoter inh	INS promoter inh cell count	RGS16-Gao	GALR2 agonist
41	O=C(CCS(=O)(=O)c1ccccc1)Nc1ccccc1F	i	1.1	-8	·	·	101	·
14	Cc1nn(Cc2ccc(F)cc2)c(C)c1NC(=O)c1cnn2cccnc12	i	0.84	-9	40	108	104	-1.6
11	O=C(CN1C(=O)c2ccccc2C1=O)Nc1ccccc1C(=O)NC1CCCCCC1	i	1.1	-1	21	76	103	0.2

Further compounds.
#	SMILES	HSV replic up	HSV replic up primary fold	PKD1 inh	INS promoter inh	INS promoter inh cell count	RGS16-Gao	GALR2 agonist
46	CCc1nnc(NC(=O)C2Cc3ccccc3CN2S(=O)(=O)CC)s1 (stereo not given)	i	0.97	2	-33	42	111	·
47	COc1ccccc1NC(=O)Cn1nnc(-c2ccccc2NS(=O)(=O)c2ccccc2)n1	i	0.86	0	39	87	108	-1.0
48	CCCS(=O)(=O)N1CCCC(c2nc(-c3ccc(OC)cc3)no2)C1 (stereo not given)	i	0.63	2	23	117	74	-1.6
49	O=C(NCCN1CCc2ccccc2C1)Nc1ccc(F)cc1	i	0.91	0	·	·	99	-0.5
50	O=C(Cn1c(=O)oc2cc(S(=O)(=O)N3CCCC3)ccc21)NC1CCCc2ccccc21 (stereo not given)	·	·	-4	·	·	98	16*
51	CCCc1ccc(-c2cc(C(=O)N/N=C/c3ccc([N+](=O)[O-])o3)c3ccccc3n2)cc1	·	·	-5	-38	64	53	-1.7
52	Cc1ccc(-c2csc3ncnc(SCC(=O)O)c23)cc1	i	1	·	·	·	99	·
53	CCN(c1ccccc1)S(=O)(=O)c1ccc(Cl)c(NC(=O)Nc2ccc(Cl)cc2C#N)c1	i	0.7	-13	·	·	95	-0.3
54	Cn1cnc2cc(NCc3cccs3)ccc21	·	·	-7	38	108	102	·
55	COc1cc(S(=O)(=O)Nc2cccc(C(=O)O)c2)c(OC)cc1Cl	i	0.94	-3	·	·	98	-2.8
56	COc1ccc2c(c1)c(CC(=O)Nc1cccc(S(N)(=O)=O)c1)c(C)n2C(=O)c1ccc(Cl)cc1	i	0.9	·	·	·	98	·
57	NC1=NC(c2ccc(F)cc2)n2c(nc3ccccc32)N1 (stereo not given)	i	0.82	-5	·	·	101	-1.5
58	COc1ccc(C2CC(=O)C3=C(C2)Nc2ncnn2C3c2ccccc2C)c(OC)c1 (stereo not given)	i	0.72	-3	-22	94	100	2.9
59	Cc1ccnc(NC(c2ccsc2)c2ccc3ccc(C)nc3c2O)c1 (stereo not given)	i	0.94	3	-26	133	107	·
60	Cc1cc(Oc2ccc(-c3ccccc3)cc2)nc(N2CCOCC2)n1	i	1	-16	21	121	100	-2.0
61	O=C(O)CCCCCCCCCC(=O)c1cccs1	i	1.1	-2	-27	108	132	-0.5
62	CSc1cccc(CN2CCC(CO)(Cc3ccccc3)CC2)c1	i	0.94	-4	·	·	110	·
63	Cc1cc2ccccc2n1CCNC(=O)Cc1ccccc1	?	·	3	·	·	102	-2.1
64	COc1ccc(OC)c(NC(=O)C2CCCN(S(=O)(=O)c3cccc4nonc34)C2)c1 (stereo not given)	i	0.76	-5	-21	84	102	-1.6
65	O=C1ON=C(c2ccccc2)/C1=C/c1ccco1	i	1.1	-7	·	·	87	·
66	Cc1nc2nc(SCC(=O)NCCN3CCOCC3)nn2c(C)c1Cc1ccccc1	i	0.95	-1	-55	89	101	-1.9
67	CCC(C)NC(=O)c1ccccc1NC(=O)/C(=C/c1ccc(OC)cc1)c1ccccc1 (stereo not given)	i	0.85	-4	13	92	93	-0.2
68	Cc1cc(C)nc(SCC(=O)Nc2ccc(Br)cn2)n1	i	0.93	-3	·	·	97	-0.7
69	Cc1nnc(SCC(=O)N2CCN(c3ccccc3)CC2)n1-c1ccccc1	i	0.93	-12	·	·	100	-0.9
70	COC(=O)c1ccc(NC(=S)NCCc2ccc(OC)cc2)cc1	i	0.91	-1	·	·	103	·
71	C/C=C(/C)C(=O)OC1c2c(ccc3ccc(=O)oc23)OC(C)(C)C1OC(C)=O (stereo not given)	i	0.99	2	-11	222	66	0.0
72	O=C(CN(Cc1ccccc1F)C(=O)Cn1nnc(-c2cccs2)n1)NC1CCCCC1	i	1	17	-34	50	101	-0.4
73	CCN1CCC(NC(=O)Nc2cc(Cl)ccc2OC)CC1	i	0.89	-5	0	118	101	·
74	O=S(=O)(CCc1nc2ccccc2s1)c1ccc(Cl)cc1	i	0.9	0	14	134	103	-2.6
75	COc1ccccc1C(=O)c1cc2ccc(O)cc2oc1=O	i	1.1	0	-43	114	101	·
76	COc1ccc(C)cc1N(C(=O)COc1ccccc1)c1nc2ccccc2s1	i	1.1	-2	44	79	104	-0.9
77	Cc1c(NC(=O)Nc2ccc3c(c2)OCO3)c(=O)n(-c2ccccc2)n1C	i	0.99	2	-37	298	120	-3.6
78	COc1cc(CC(=O)Nc2cccc(C(F)(F)F)c2)cc(OC)c1OC	i	1	2	-25	72	66	-1.3
79	Cc1c(NC(=O)C2(c3ccccc3)CCCC2)c(=O)n(-c2ccccc2)n1C	·	·	-10	17	77	106	1.0
80	CC(=O)Nc1ccc(-c2csc(NC(=O)C3CCN(S(=O)(=O)c4cccs4)CC3)n2)cc1	i	0.68	1	-1	140	105	-0.1
81	CCCCCCCCn1c(=O)c(C(=O)OCC)c(O)c2ccccc21	i	1.3	-13	8	88	106	-2.8
82	COc1ccccc1N1CC(C)C(=O)NC1=S (stereo not given)	i	1	-8	15	94	65	-1.0
83	CC(=O)Nc1ccc(S(=O)(=O)N(CCc2ccccc2)CC(=O)N/N=C/c2ccc(C(=O)O)cc2)cc1	i	1	5	·	·	108	·
84	Cc1cccc2cc(CN(CC3CCCO3)C(=O)c3cccnc3)c3nnnn3c12 (stereo not given)	i	1.2	0	·	·	98	-0.5
85	COc1ccc(C(=O)NC(=S)Nc2ccccc2[N+](=O)[O-])cc1OC	i	1.1	3	-24	104	102	·
86	Cc1ccc(NS(=O)(=O)c2ccc(C(=O)OCC(=O)NCC3CCCO3)cc2)cc1 (stereo not given)	i	0.98	4	·	·	103	·
87	COc1ccc(NCc2nc3ccccc3n2CCOc2ccc(C)cc2)cc1	i	0.8	-7	-17	137	47	-0.3
